# From PubChem
# Vaccinia pol inh: vaccinia E9 polymerase processive synthesis inhibitors, primary screen, biochemical, absorbance; normalized absorbance, % (test concentration not listed); in vitro processive DNA synthesis, absorbance read-out; hits give low values; some inactives read as strong as hits; actives 0.94% (n = 46,000); Vaccinia virus DNA polymerase (E9) processive complex;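 active means replicate mean up to 90% and picked by the depositor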;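 further: 100% = median of the test wells of a plate; 100 nL library stock went into each well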
# The depositor's hits bear a star.
structure	Vaccinia pol inh
COc1cc(C2c3c(oc4ccccc4c3=O)C(=O)N2Cc2ccccc2)ccc1O (stereo unspecified)	95
CCOc1ccc2nc(SCc3c(F)c(F)c(F)c(F)c3F)[nH]c2c1	99
N#CCCS(=O)(=O)c1ccccc1	92
N#Cc1cc2c(nc1SCC(=O)N1CCCCC1)CCCC2	101
CCc1ccc(NC(=O)Cn2c(C(=O)OC)cc3oc4ccccc4c32)cc1	93
CN(C(=O)c1cccc(S(=O)(=O)N2CCCC2)c1)C1CCCCC1	102
CC1CN(C(=O)CCC(=O)NCc2ccco2)c2ccccc2O1 (stereo unspecified)	103
COc1ccc(-n2ccc(O)c(Cc3ccc(Cl)cc3)c2=O)cc1	98
O=C(CCNc1ccccc1)n1c(=O)oc2ccccc21	89
CCc1cccc2c(/C=C3/C(=O)N(C)c4ccccc43)c[nH]c12	101
Cc1ccccc1C1=NC(c2ccc(F)cc2F)ON1 (stereo unspecified)	95
CCC1=N/C(=C\c2ccc(Br)cc2)C(=O)O1	102
O=S(=O)(Nc1ccccc1Cl)c1ccc2[nH]c(=S)oc2c1	94
Cc1ccc(-n2c(C)cc(C=C3C(=O)c4ccccc4C3=O)c2C)cc1	100
CSC1=C(C#N)C(c2cccc(Cl)c2Cl)C2=C(CCCC2=O)N1 (stereo unspecified)	93
Cc1ccc(SCC(=O)n2c3ccccc3c3ccccc32)cc1	100
O=C(CC(c1ccco1)C1CCCCC1=O)c1ccccc1 (stereo unspecified)	100
CCOC(=O)C1CCCCN1 (stereo unspecified)	105
Cc1ccc(NCC(=O)c2ccc(-n3nncc3-c3ccccc3)cc2)cc1	101
O=C(CCc1nc2cccnc2n1-c1ccccc1)N1CCCCC1	102
COc1ccc(C(CC(=O)c2ccccc2)CC(=O)c2ccccc2)cc1	99
CC1=CS/C(=C(/C#N)C(=O)N2CCOCC2)N1c1ccccc1	80
COc1ccc(/C=C/C=N/n2c(SC)nnc2-c2ccccc2)cc1	100
CC(=O)Oc1cn(C)c2ccccc12	95
CC1CCCC(NC(=O)COC(=O)/C=C/c2ccc(F)cc2)C1C (stereo unspecified)	99

# (cont.)
structure	Vaccinia pol inh
Cn1ncc(SCc2ccccc2)c(Cl)c1=O	103
COCc1nc(SCC(=O)OC)c(C#N)cc1C(=O)OC	98
CCN1CCN(C(=O)c2ccc3c(c2)N(Cc2ccc(C)cc2)CCS3)CC1	80
CC1(C)CSC(=NCCc2ccccc2)N1	106
COc1cccc(C(O)c2nccn2Cc2ccccc2)c1OC (stereo unspecified)	105
Cc1nn(CCC(N)=O)c2nc(-c3cccs3)cc(C(F)(F)F)c12	97
CN(C)/C=C1\SCc2ccccc2C1=O	80
CCCc1cc(=O)oc2cc(O)cc(O)c12	98
Cc1cc(Cl)ccc1OCC(=O)Nc1ncc(Br)s1	79
S=c1n(CN2CCOCC2)nnn1C1CCCCC1	94
CCC1=Nc2cc(C(=O)N3CCC(C)CC3)ccc2Sc2ccccc21	106
CC(=O)Nc1nc(C)cs1	89
O=C(O)c1cccc(C(=O)O)n1	95
COc1ccc(/C=C/C(=O)N2CCN(c3ccccc3)CC2)cc1OC	103
CCc1ccc(NC(=S)N2CCC(N(C)C(C)C)CC2)cc1	87
CCn1c(SCC(N)=O)nnc1-c1sc2cc(Cl)ccc2c1Cl	96
COCc1nc2ccccc2n1Cc1cccc2ccccc12	105
CC(C)(C)C(=O)NC(Sc1nccc(=O)[nH]1)=C(Cl)Cl	97
On1onc2c3cc(-c4ccccc4)nc3ccc21	97
CCN1C2OC3OC4C(OC3OC2N(CC)S1(=O)=O)N(CC)S(=O)(=O)N4CC (stereo unspecified)	101
Cc1nc2ccccc2nc1SCC(=O)N1CCCCC1	92
Cc1ccc(-n2nc(C)c3c(C)c(CCC(=O)NC(C)c4ccc5c(c4)OCCO5)c(C)nc32)cc1 (stereo unspecified)	104
CC(C)Sc1ccc2nnc(-c3ccccn3)n2n1	98
N#CC(C#N)=C(N)COc1cccc(Cl)c1	112
CCc1cccc(NC(=O)CCS(=O)(=O)c2ccc3c(c2)SCC(=O)N3)c1	99

# Further structures:
structure	Vaccinia pol inh
CC1=C(C#N)C(c2ccc(N(C)C)cc2)C(C(=O)Nc2ccccc2)=C(C)N1 (stereo unspecified)	99
COc1ccc(C(=O)CN2CCc3ccccc32)cc1	95
COC(=O)c1sccc1N/C=C(\C#N)S(=O)(=O)C(C)(C)C	99
CC(=O)NS(=O)(=O)c1ccc(-c2ccc(/C=C3/C(=O)N(CCCO)C(=O)C(C#N)=C3C)o2)cc1	100
CN=c1scc(C)n1NC(=O)Nc1ccc(Cl)cc1	98
COC(=O)CN1C(=O)/C(=C/c2ccc(OCc3ccccc3)c(OC)c2)SC1=S	100
O=C1c2ccccc2C(=O)N1CCCn1c(=O)oc2ccccc21	100
O=C(CSc1ccccc1Cl)NCc1ccccc1Cl	83
CCc1cc2c3c(c(=O)oc2cc1OCC(=O)OC(C)(C)C)CCCC3	100
COC(=O)c1c(C)oc(C)c1S(=O)(=O)Nc1ccc(C(C)C)cc1	99
O=C(O)C1CCN(S(=O)(=O)c2cccc3cccnc23)CC1	100
Cc1ccccc1C(=O)c1cccn1CC(=O)NC(C)c1ccc2c(c1)OCCO2 (stereo unspecified)	104
O=C(CSc1nc2ccccc2[nH]1)N1CCc2ccccc2C1	98
CCc1cccc(NCC(O)Cn2nnnc2-c2ccccc2)c1 (stereo unspecified)	101
Cc1cccn2c(=O)c3cc(C(=O)NC(C)c4ccccc4)c(=N)n(CC4CCCO4)c3nc12 (stereo unspecified)	100
O=C(COc1ccccc1Br)N1CCCCC1	101
Cc1ccc2[nH]c(C)c(CCN(Cc3ccco3)C(=S)Nc3cccc(C)c3C)c2c1	99
COc1cc(C=Nc2ccc(C(=O)c3ccccc3)cc2)cc(OC)c1OC	98
CC(C)NC(=O)Cn1cc2c(n1)CCCC2	101
CCC(=O)Nc1ccc2c(c1)nc1n2CCN(Cc2ccccc2)C1	104
Cc1ccc(Nc2nc(-c3ccc(S(=O)(=O)N4CCCC4)cc3)cs2)cc1	100
CCn1c(=O)c2c3c(sc2n2c(SCc4ccc(OC)cc4)nnc12)CCCC3	100
C=CCc1c(C)nc(-c2ccccc2)[nH]c1=O	98
CC1(C)CC2(CCCN(CCCN3CCCC4(CCOC(C)(C)C4)C3)C2)CCO1 (stereo unspecified)	96
CC(C)(C)NC(=O)CCc1ncc(C(F)(F)F)cc1Cl	95

# Later entries.
structure	Vaccinia pol inh
CC(=O)N[C@@H](CC(=O)O)C(=O)N[C@@H](CCC(=O)O)C(=O)O	100
CCOC(=O)C1(C#N)C(N)=C(C#N)C(c2ccccc2)=CC1c1ccccc1 (stereo unspecified)	100
CC(C)c1cccc(C(C)C)c1NC(=O)/C=C/c1ccco1	98
Cc1cccc(-c2nc(NCCCN3CCOCC3)c3ccccc3n2)c1	95
Cc1cc(N=Cc2c[nH]c3ccccc23)ccc1Br	95
Cc1ccc(SCC(=O)Nc2ccc(I)cn2)cc1	102
Cc1nn(-c2ccccc2)nc1CNC(=O)C1CC1	101
CCCCN(C)C(=O)c1c[nH]c2ccc(S(=O)(=O)Nc3cccc(OC)c3)cc2c1=O	102
O=C(Nc1ccncc1)C1(c2ccccc2)CCCC1	109
CCOC(=O)N1CCN(C(=O)C2CC(=O)N(c3ccc(OC)cc3)C2c2ccc(OC)cc2)CC1 (stereo unspecified)	98
Cc1nc(N2CCCN(C)CC2)c2c3c(sc2n1)CCC3	95
O=C(c1noc2c1CCCC2)N(C1CCCCC1)C1CCCCC1	91
O=C1Nc2ccccc2C1=NC1CCN(Cc2ccccc2)CC1	86
CCOC(=O)N1CCN(C(=O)c2ccc(CNS(=O)(=O)c3ccc(NC(C)=O)cc3)cc2)CC1	99
COc1cc(CNCc2cccnc2)ccc1OCC(N)=O	97
CCOC(=O)Cc1nn(Cc2nc(-c3ccccc3)cs2)c(=O)c2ccccc12	102
NC(=O)C1CCN(C(=O)Nc2cc3ccccc3s2)CC1	100
O=C(NCCc1ccccc1F)c1ccc2ccccc2c1	103
CC(NC(=O)C1CCN(C(=O)c2cc3sccc3n2Cc2ccc(F)cc2)CC1)c1ccccc1 (stereo unspecified)	102
COc1ccc(-c2csc(NC(=O)/C=C/c3cccs3)n2)c(OC)c1	100
CC(C)C(=O)Nc1c(C(=O)c2ccccc2)oc2ccccc12	104
CCN(CC)C(=O)Cn1cc(S(=O)(=O)CC(=O)N2CCCCC2)c2ccccc21	101
CC(C)NC(=O)N(Cc1ccccc1)Cc1cccnc1	93
CN(Cc1cc(Br)cc(Br)c1N)C1CCCCC1	99
CCN1C(=O)c2cccc3c(S(=O)(=O)NCc4ccccc4)ccc1c23	101

# Continued, starting with the last 2 of the part before.
structure	Vaccinia pol inh
CN(Cc1cc(Br)cc(Br)c1N)C1CCCCC1	99
CCN1C(=O)c2cccc3c(S(=O)(=O)NCc4ccccc4)ccc1c23	101
CC(C)CC(=O)Nc1nnc(SCc2ccccc2)s1	99
O=C(O)CSC(=S)N1CCOCC1	100
CC(NC(=O)C1CCN(C(=O)N(C)C)CC1)c1ccccc1 (stereo unspecified)	103
CC(C)(Oc1ccccc1OC(=O)c1ccccc1)C(=O)CBr	92
CC(C(=O)O)(c1ccccc1)c1ccccc1	100
CCCNC(=O)c1ccc(CSc2nc3ccncc3[nH]2)cc1	95
CCNc1nc(C(F)(F)F)cc(=O)[nH]1	71
CN(C(=O)COC(=O)c1ccc2ccccc2c1)c1ccccc1	104
Cc1cc(C)n(-c2ccccc2)n1	102
O=C(O)CCNS(=O)(=O)c1cccc(C(F)(F)F)c1	91
CCOc1ccc(NC(=S)NCCCn2ccnc2)cc1	88
CCN1CCN(C(=O)C(C)n2c(C)c3cnn(-c4ccccc4)c(=O)c3c2C)CC1 (stereo unspecified)	107
Cc1ccc(N2C(=O)C(c3ccccc3)C(N3CCOCC3)C2=O)cc1 (stereo unspecified)	104
C=CCNC(=O)Nc1ccc(Cl)cc1	101
O=C(NCc1ccccc1)N1CC2C=CC1C2 (stereo unspecified)	100
COc1ccc(/C=C2/N=C(c3ccccc3)OC2=O)cc1	92
O=C(CN(Cc1ccco1)C(=O)c1ccccc1)Nc1ccc(Cl)c(Cl)c1	101
O=C(COC(=O)c1ccc(Cl)nc1)NCc1ccccc1	105
O=C(CSC1=NCCS1)Nc1nc(-c2ccccc2)cs1	89
CCCOc1ccc(C(=O)NCC2(c3ccc(OC)cc3)CCOCC2)cc1	100

# By substructure: the compounds so far containing four or more nitrogen atoms
structure	Vaccinia pol inh
Cc1ccc(NCC(=O)c2ccc(-n3nncc3-c3ccccc3)cc2)cc1	101
O=C(CCc1nc2cccnc2n1-c1ccccc1)N1CCCCC1	102
COc1ccc(/C=C/C=N/n2c(SC)nnc2-c2ccccc2)cc1	100
Cc1nn(CCC(N)=O)c2nc(-c3cccs3)cc(C(F)(F)F)c12	97
S=c1n(CN2CCOCC2)nnn1C1CCCCC1	94
CCn1c(SCC(N)=O)nnc1-c1sc2cc(Cl)ccc2c1Cl	96
CCN1C2OC3OC4C(OC3OC2N(CC)S1(=O)=O)N(CC)S(=O)(=O)N4CC (stereo unspecified)	101
Cc1ccc(-n2nc(C)c3c(C)c(CCC(=O)NC(C)c4ccc5c(c4)OCCO5)c(C)nc32)cc1 (stereo unspecified)	104
CC(C)Sc1ccc2nnc(-c3ccccn3)n2n1	98
CC1=C(C#N)C(c2ccc(N(C)C)cc2)C(C(=O)Nc2ccccc2)=C(C)N1 (stereo unspecified)	99
CN=c1scc(C)n1NC(=O)Nc1ccc(Cl)cc1	98
CCc1cccc(NCC(O)Cn2nnnc2-c2ccccc2)c1 (stereo unspecified)	101
Cc1cccn2c(=O)c3cc(C(=O)NC(C)c4ccccc4)c(=N)n(CC4CCCO4)c3nc12 (stereo unspecified)	100
CCC(=O)Nc1ccc2c(c1)nc1n2CCN(Cc2ccccc2)C1	104
CCn1c(=O)c2c3c(sc2n2c(SCc4ccc(OC)cc4)nnc12)CCCC3	100
Cc1cccc(-c2nc(NCCCN3CCOCC3)c3ccccc3n2)c1	95
Cc1nn(-c2ccccc2)nc1CNC(=O)C1CC1	101
Cc1nc(N2CCCN(C)CC2)c2c3c(sc2n1)CCC3	95
CCOC(=O)N1CCN(C(=O)c2ccc(CNS(=O)(=O)c3ccc(NC(C)=O)cc3)cc2)CC1	99
CCCNC(=O)c1ccc(CSc2nc3ccncc3[nH]2)cc1	95
CCOc1ccc(NC(=S)NCCCn2ccnc2)cc1	88
CCN1CCN(C(=O)C(C)n2c(C)c3cnn(-c4ccccc4)c(=O)c3c2C)CC1 (stereo unspecified)	107

# Only part of the results is shown; count on the stated rates, not on these rows.
